Compound activity from PubChem BioAssay.
GLA inh pH 4.5 – qHTS Assay for Inhibitors of Human alpha-Galactosidase at pH 4.5 | 230,000 tested, under 10 active | Alpha-galactosidase A (Homo sapiens), P06280 | purified enzyme, 4-MU-alpha-Gal fluorescence, pH 4.5 | activity change, negative = inhibition, % at 105 µM | AID 1467, 2008; inconclusive = small, poorly fitted or top-dose-only inhibition, or a rising curve; inactive = flat fitted curve, though single readings scatter; no compound was filed as active;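 also: 0% = full activity with enzyme and -100% = basal without enzyme; dose as in the result columns while the protocol names 77 µM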
Rango dissoc inh – qHTS Assay for Inhibitors of RanGTP induced Rango (Ran-regulated importin-beta cargo) - Importin beta complex dissociation. Snurportin-1 (Homo sapiens) + GTP-binding nuclear protein Ran (Homo sapiens) + Importin …. Biochemical FRET Rango-importin beta, RanGTP-induced dissociation. Potency, µM (doses to about 46.1 µM), inactives show at the highest dose activity change, negative = inhibition. 0.071% of 340,000 active. AID 540253, 2011; active means falling FRET ratio curve, often poorly fitted, with flat reads before Ran was added; inconclusive means other falling curves, or compound fluorescence or quenching; inactive means flat or rising ratio curve;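 also: potency is read from the fitted curve at half-maximal effect; % of control where 0% means no effect; nearly all actives have a fitted effect of over 45% in size; -100% = wells without RanGTP and RCC1; the record marks most hits as doubtful in a second field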
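Two FRET readings bracket the reaction: one 5 min after compound meets Rango–importin beta, another 45 min after RanGTP-RCC1 (0.6 uM Ran, 0.2 uM RCC1, 2 mM GTP) is added. Only the second defines inhibition.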
miR-21 reporter – qHTS Assay for Modulators of miRNAs and/orActivators of miR-21 | AID 2288, 2010 | 340,000 tested, under 10 active | Potency, µM (titrated, usually from 38.3 µM), inactives show at the top dose reporter change, positive = more light | HeLa miR-21 FLuc reporter, luciferase, 48 h; active = well fitted rising curve with a large enough effect; inconclusive = small, poorly fitted or top-dose-only effect; inactive = no such curve, though single readings can be large or run the other way;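 also: % of control where 0% means no effect; miR-21 action dims this reporter so a rising signal means less miR-21 action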
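Compounds were titrated across several concentrations (up to approximately 40 uM) and incubated 48 hours with HeLa miR-21-FLuc reporter cells (miR-21 target sequence downstream of FLuc, endogenous miR-21). Readout was firefly luciferase luminescence after lytic detection reagent.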
Rango complex inh – qHTS Assay for Inhibitors of Rango (Ran-regulated importin-beta cargo) - Importin beta complex formation. Importin subunit beta-1 (Homo sapiens), Q14974. Rango CFP/YFP FRET sensor + importin beta, 45 min. Potency, µM (highest dose often 92.2 µM), for inactives: top-dose inhibition of complex formation. 0.031% of 340,000 active. AID 540263, 2011; active = rising FRET ratio curve, often small or poorly fitted; inconclusive = mostly compound fluorescence or quenching in the first reads; inactive = flat curves in all reads;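 also: potency is read from the fitted curve at half-maximal effect; 0% = DMSO wells and 100% = buffer wells lacking importin beta; nearly all actives have a fitted effect of over 15% in size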
Target sequence (Q14974 whole entry, looked up): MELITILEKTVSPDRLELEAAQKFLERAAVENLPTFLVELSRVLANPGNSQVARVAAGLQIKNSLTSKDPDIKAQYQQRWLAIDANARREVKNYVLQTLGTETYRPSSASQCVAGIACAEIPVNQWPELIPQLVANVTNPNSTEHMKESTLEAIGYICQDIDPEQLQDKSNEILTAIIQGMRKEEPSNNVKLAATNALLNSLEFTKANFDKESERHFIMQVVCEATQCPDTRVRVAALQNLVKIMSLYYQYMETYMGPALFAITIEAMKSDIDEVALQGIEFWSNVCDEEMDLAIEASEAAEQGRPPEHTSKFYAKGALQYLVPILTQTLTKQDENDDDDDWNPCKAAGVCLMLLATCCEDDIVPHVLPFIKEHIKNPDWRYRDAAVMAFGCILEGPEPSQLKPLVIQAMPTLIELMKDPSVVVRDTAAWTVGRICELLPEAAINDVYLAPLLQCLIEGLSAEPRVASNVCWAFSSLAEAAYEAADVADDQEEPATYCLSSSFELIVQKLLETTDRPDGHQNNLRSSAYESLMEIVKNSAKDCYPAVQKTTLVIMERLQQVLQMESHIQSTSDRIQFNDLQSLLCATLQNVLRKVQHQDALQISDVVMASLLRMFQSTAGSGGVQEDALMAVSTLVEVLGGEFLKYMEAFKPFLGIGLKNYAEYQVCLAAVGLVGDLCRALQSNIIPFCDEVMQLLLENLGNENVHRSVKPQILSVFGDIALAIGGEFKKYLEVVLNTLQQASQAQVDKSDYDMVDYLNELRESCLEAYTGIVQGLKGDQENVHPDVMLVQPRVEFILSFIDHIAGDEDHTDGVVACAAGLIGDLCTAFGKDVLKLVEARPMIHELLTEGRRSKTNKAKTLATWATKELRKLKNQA
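Inhibition scored from the CFP 486 nm/YFP 530 nm FRET ratio 45 min after adding 0.125 microM importin beta to 50 nM Rango biosensor preincubated 5 min with compound (room temperature, PBS with DTT, Tween-20, BSA). No-importin wells as positive control.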
Active calls of the source: *; ? = inconclusive; . = no result given; & = joins results of further samples. Only part of the results is shown. The share of hits here may be higher or lower than overall.

Every second line gives: GLA inh pH 4.5 | miR-21 reporter | Rango complex inh | Rango dissoc inh
O=[N+]([O-])c1cccc(NC(=S)N2CCc3ccccc3C2)c1
  -3.3 | -24.8% | 10.4% | 8.7%
COc1cccc(CC2(CO)CCCN(C/C=C/c3ccccc3OC)C2)c1 (stereo unspecified)
  -12.2 | 2.6% | 0.4% | -13.5%
Cc1ccccc1NC(=O)Cn1cc(C(=O)C2CC2)c2ccccc21
  . | -1.7% | -1.3% | 4.8%
Brc1ccc(-c2ccc(/C=N/Nc3nc(N4CCOCC4)nc(N4CCOCC4)n3)o2)cc1
  3.6 | 2.5% | -3.2% | 3.7%
Cc1ccccc1-c1n[nH]c(=S)o1
  0.6 | -6.5% | 5.4% | 6.3%
Cc1ccc(NS(=O)(=O)c2ccc3c(c2)NC(=O)CO3)cc1Cl
  . | 4.6% | -1.7% | -9.5%
Cc1ccc(N(C)S(=O)(=O)c2cc(-c3cnc(C4CC4)o3)ccc2C)cc1
  . | 3.4% | 0.8% | 6.7%
N#Cc1cccc(NC(=O)CCN2C(=O)C3CCCCC3C2=O)c1 (stereo unspecified)
  . | . | -0.6% | -7.3%
CCOC(=O)C[C@H]1c2ccc(C(F)(F)F)cc2S(=O)(=O)N1C(C)C
  . | . | 2.5% | -8.2%
CCOc1ccc(NS(=O)(=O)CC23CCC(CC2=O)C3(C)C)cc1 (stereo unspecified)
  1.8 | -4.6% | -0.5% | -11.4%
CCOC(=O)CC(=O)CSc1nnc2sc3ccccc3n12
  8.4 | -12.1% | 0.5% | -23.2%
COC(=O)c1sc(NC(=O)c2c(OC)cccc2OC)c(C#N)c1C
  -1.4 | -0.9% | ? | ?
S=C(NCCN1CCOCC1)Nc1ccc(-c2nc3ccccc3[nH]2)cc1
  -2.2 | 14.6% | 0.7% | -18.5%
COc1ccc(Cl)cc1NC(=O)CN(C)C(=O)CCCc1c[nH]c2ccccc12
  . | 0.5% | -3.7% | -8.2%
COc1ccc(C(CNC(=O)COc2ccccc2)N2CCCCC2)cc1 (stereo unspecified)
  . | . | -6.5% | -0.8%
CCN(CC(=O)Nc1ccccc1OC)CC(=O)Nc1ccccc1C(F)(F)F
  -12.8 | 11.1% | 2.5% | -11.5%
COC(=O)[C@@H](Cc1ccccc1)NC(=O)[C@H]1CCC(=O)N1C(=O)OCc1ccccc1
  . | 0.8% | -5.0% | -8.1%
O=C(CCNc1cc(Cl)cc(Cl)c1)c1ccco1
  -5.0 | -9.6% | -0.9% | 11.4%
COc1ccc(N2C(=O)C3CCCN3C2=O)cc1 (stereo unspecified)
  . | 0.9% | 2.5% | -2.7%
Cc1cc2[nH]c(=O)c(=O)[nH]c2cc1S(=O)(=O)NC1CCCCC1C (stereo unspecified)
  . | -12.4% | -2.3% | -9.4%
COc1ccc(-c2noc(-c3ccoc3C)n2)cc1
  -9.0 | -61.6% | -1.0% | -8.9%
CCn1cc(C(=O)C(F)(F)F)c2ccccc21
  2.1 | -1.5% | -2.3% | 3.2%
CCCCn1c(N)c(N(CCOC)C(=O)c2cccc(S(=O)(=O)N3CCCCCC3)c2)c(=O)[nH]c1=O
  . | . | -1.5% | 11.0%
S=C(Nc1ccc(Nc2ccccc2)cc1)NN1CCOCC1
  -1.3 | -21.3% | 0.3% | 20.6%
CC(=O)c1c(C(=O)O)[nH]c(C(=O)O)c1C
  -6.0 | -0.1% | -0.2% | 6.7%
FC(F)(F)c1cc(-c2ccco2)nc(N2CCN(c3ccccc3)CC2)n1
  -2.9 | -2.4% | 0.0% | -2.0%
CCCN1CNC(=S)N(Cc2ccccc2)C1
  5.8 | 0.6% | 1.2% | -6.2%
COc1ccccc1-n1cnc2cc(C(=O)NCCCN3CCOCC3)ccc21
  -7.6 | -15.2% | -0.5% | 4.6%
CCCCSCCCNC(=O)c1cn(C)c2ccc(S(=O)(=O)N3CCCC3)cc2c1=O
  . | 0.0%&-1.2% | 3.9% | -7.1%
COCCCNC(=O)CNC(=S)N(Cc1ccccc1)Cc1cccnc1
  6.5 | -1.8% | 7.8% | 6.1%
Cc1ccc2c(CC(=O)O)coc2c1
  -13.5 | -8.0% | 2.8% | 0.7%
O=C(Nc1ccn(CCCNCCCN2CCCC2=O)c(=O)n1)OCc1ccccc1
  . | . | ? | -33.2%
CCC1(C)N(O)C(C)(C)C(c2ccc(OC)cc2)=[N+]1[O-] (stereo unspecified)
  0.2 | -5.1% | 8.8% | 3.4%
CN1CC(=O)N/C1=N\C(=O)Nc1ccc(O)cc1
  . | -5.6% | -4.3% | 2.4%
CCOc1ccc(S(=O)(=O)Nc2cc(Cl)ccc2O)cc1
  -6.9 | 19.7% | -0.7% | -8.0%
N#CCC(=O)Nc1ccc(C(=O)NCC(c2ccco2)N2CCCCC2)cc1 (stereo unspecified)
  -9.9 | 4.5% | -2.2% | -0.4%
CC(C)(C)C(=O)N1CCN(c2ccc([N+](=O)[O-])cc2-n2cccc2)CC1
  -7.0 | -6.2% | 2.5% | 3.9%
CSc1nc(-c2ccco2)nn1C(=O)Cc1ccccc1
  3.3 | -9.0% | 3.0% | 0.0%
CC(=O)Nc1nc(C)c(-c2csc(Nc3ccc(O)cc3)n2)s1
  -0.3 | 0.1% | 5.4% | 8.9%
C=CCn1c(Cc2nc3ccc(Cl)cc3[nH]2)n[nH]c1=S
  -13.4 | -24.7% | -1.1% | -23.8%
Cc1ccc(C(=O)C2=C(O)C(=O)N(Cc3cccnc3)C2c2ccc(OC(C)C)cc2)o1 (stereo unspecified)
  . | 1.6% | ? | -10.7%
COC(=O)c1ccc(S(=O)(=O)N2CCCN(Cc3cccc(Br)c3F)CC2)n1C
  -13.5 | 25.2% | 1.0% | -22.0%
O=S(=O)(NCC1NCCc2ccccc21)c1ccccc1 (stereo unspecified)
  3.1 | -27.2% | -1.5% | 10.2%
Cc1nnc(SCC(=O)Nc2cc(S(=O)(=O)N3CCOCC3)ccc2N2CCCC2)s1
  . | . | 2.3% | 0.7%
COCCCN(C(=O)CCSc1ccc(F)cc1)c1c(N)n(Cc2ccccc2)c(=O)[nH]c1=O
  . | . | -2.4% | -11.0%
C=CCn1c(SCC(=O)Nc2cccc(S(N)(=O)=O)c2)nc2sc(C)c(C)c2c1=O
  . | . | 0.0% | -4.2%
Cc1cc(C)n2nc(CC#N)c(C#N)c2n1
  -22.9 | -3.6% | 0.7% | -7.6%
O=C(NN1CCOCC1)c1ccc(Br)cc1
  . | . | 8.5% | -3.8%
Cn1nccc1C(=O)N1CCN(c2ncccn2)CC1
  4.7 | -0.8% | 0.7% | -3.3%
CCOc1ccc(C(C)=O)cc1Cn1c(=O)oc2ccccc21
  . | -1.1% | 1.1% | 1.3%
COc1cccc(CSc2nc3sc(C)c(C)c3c(=O)n2Cc2ccco2)c1
  3.6 | -1.2% | -0.4% | -12.6%
O=C(Oc1cccc2ccccc12)c1cc(Cl)nc2ccccc12
  -5.3 | 1.0% | 1.2% | 1.7%
CCOC(=O)c1c(NC(=O)COC(=O)c2cc(OC)c(OC)cc2[N+](=O)[O-])sc(C)c1C
  0.5 | -1.0% | 2.3% | -2.2%
S=c1[nH]nc(/C=C/c2ccccc2)o1
  2.4 | -1.8% | -0.3% | -0.8%
Cc1ccc(C)c(NC(=O)CCN2C(=O)c3ccccc3C2=O)c1
  . | -0.7% | 3.9% | -5.2%
COc1ccc(N2CCN(C(=O)CC(NC(N)=O)c3cccc(Oc4ccccc4)c3)CC2)cc1 (stereo unspecified)
  -0.2 | 8.0% | -0.7% | 3.6%
COc1cc(C2C(C#N)=C(N)N(N(C)C)C3=C2C(=O)CCC3)ccc1O (stereo unspecified)
  . | 1.2% | ? | -20.4%
CCOC(=O)C(=O)N/N=C(/c1ccccc1)c1ccc(OC)cc1
  -8.4 | -1.6% | -1.2% | 19.4%
C=CCn1c(SCC(=O)NCc2ccco2)nc2sc3c(c2c1=O)CCC3
  -1.7 | -0.5% | 0.0% | -9.7%
Cc1nc2cccc(C(=O)NCc3ccccc3)c2o1
  0.3 | -7.2% | 2.0% | 14.4%

Other compounds follow:
Every second line gives: GLA inh pH 4.5 | miR-21 reporter | Rango complex inh | Rango dissoc inh
CCOc1ccc(OC(=O)C(CCS(C)(=O)=O)N2C(=O)c3ccccc3C2=O)cc1 (stereo unspecified)
  10.1 | -5.4% | ? | -2.6%
CCc1cc(Cn2nc(-c3ccccc3)cc2C(=O)NCc2cccs2)on1
  . | . | -2.8% | -2.7%
Cc1cccc(N(C(=O)c2csnn2)C(C(=O)NC(C)(C)C)c2cccnc2)c1 (stereo unspecified)
  -2.9 | -1.4% | 0.0% | -6.0%
CCc1cccc(NC(=O)CCS(=O)(=O)c2cc3c(cc2C)NC(=O)CO3)c1
  . | 0.3% | -4.2% | 1.5%
CCOn1c(=O)c(-c2cccc3ccccc23)[n+]([O-])c2ccccc21
  ? | -1.4% | 3.6% | 5.6%
COc1cccc(C2/C(=C(\O)c3c(C)nc4c(C)cccn34)C(=O)C(=O)N2CCCN(C)C)c1 (stereo unspecified)
  0.4 | 0.5% | . | .
Cc1nn(C)c(Oc2ccccc2)c1CCNS(=O)(=O)c1ccc(Cl)cc1
  -7.6 | 24.1% | -1.0% | -15.9%
O=C(/C=C/c1c(F)cccc1Cl)NCc1ccc2c(c1)OCO2
  . | -4.0% | -0.8% | -1.0%
CNc1nc(Sc2cccc(C(F)(F)F)c2)cc(C(F)(F)F)n1
  -6.2 | -3.3% | -2.5% | -16.0%
COc1cc2c3nnc(-c4ccc(F)cc4)c-3cn(Cc3cccc(C)c3)c2cc1OC
  -8.2 | -6.2% | ? | ?
CCOc1ccccc1N(CC(=O)NCc1ccncc1)S(=O)(=O)c1ccccc1
  . | -0.5% | -1.5% | 15.5%
O=C(COc1ccc2cc(Br)ccc2c1)N1CCCC1
  . | 1.5% | -0.8% | 16.4%
CCCCc1[nH]nc2c1C1(C(=O)N(CC)c3ccccc31)C(C#N)=C(N)O2 (stereo unspecified)
  -1.7 | -3.2% | -0.3% | -9.2%
CC(=O)Nc1ccc(N2CCCCC2)cc1
  0.1 | -11.8% | 0.0% | 16.1%
N/C(=N\OC(=O)C1CC1)c1ccc([N+](=O)[O-])s1
  -1.9 | 3.0% | 1.7% | 1.2%
CCn1nc(C(=O)NCC(c2cccs2)N2CCOCC2)c2ccccc2c1=O (stereo unspecified)
  . | 2.6% | -1.2% | 15.1%
CCOc1ccccc1N(CC(=O)O)S(=O)(=O)c1ccc(C)cc1
  3.2 | -1.6% | -3.2% | 0.9%
Cc1cccc(C)c1OCC(=O)Nc1ccc2c(c1)C(=O)NC2=O
  . | 1.3% | 5.5% | 16.8%
Clc1cccc(CN2CCSCC2)c1Cl
  . | -7.7% | -0.5% | 17.9%
Nc1ccc2nc(SCC(=O)N3CCN(c4ccccc4)CC3)sc2c1
  11.3 | ? | 0.3% | 1.7%
O=C(NCc1ccc(-c2csnn2)cc1)c1cc(Cl)cc(Cl)c1
  -3.7 | -13.3% | 1.0% | -6.3%
COc1ccccc1-c1cc(-c2ccccc2)nc(=O)[nH]1
  . | -7.6% | -1.6% | -5.1%
COc1ccc(N(CC(=O)NCc2ccco2)S(=O)(=O)c2ccc(C)cc2)cc1
  1.7 | -0.7% | -0.1% | 9.8%
Nc1c(C(=O)CSc2ccccn2)c(=O)[nH]c(=O)n1C1CC1
  . | . | 0.8% | -23.2%
C/C(=N\NC(=O)c1ccc(CSc2cccc3cccnc23)cc1)C1CCCCC1
  7.0 | -9.3% | -0.2% | 6.5%
CC(=O)NS(=O)(=O)c1ccc(N2C(=O)c3ccccc3C2=O)cc1
  -0.9 | -1.3% | 1.3% | -9.3%
COc1ccc(S(=O)(=O)N(C)C)cc1NCC(=O)Nc1ccc(Br)cc1F
  -23.4 | 5.6% | -2.3% | -9.7%
CCOc1ccc(NC(=O)c2cccnc2Cl)c([N+](=O)[O-])c1
  -1.5 | -21.2% | -1.6% | 1.2%
O=C(NCc1ccccc1CN1CCCC1)c1ccc(OCc2cscn2)cc1
  . | . | -4.3% | 18.8%
